Screening data from PubChem.
TRPML1 agonist = qHTS for Agonists of the Human Mucolipin Transient Receptor Potential 1 (TRPML1) | Mucolipin-1 (Homo sapiens), Q9GZU1 | TRPML1-expressing cells, Ca2+ dye fluorescence, FDSS; host cell line not named in the record; reference of the full effect not given here | activation, % (no concentration beside the values) | hit rate 0.12% among 410,000; in the data active = activation above about 50%; inconclusive = about 30% to 50%; inactive = below about 30%; note: 0% is about no effect; the text of the record puts the active cut at 80%
Target sequence (Q9GZU1 whole entry, looked up): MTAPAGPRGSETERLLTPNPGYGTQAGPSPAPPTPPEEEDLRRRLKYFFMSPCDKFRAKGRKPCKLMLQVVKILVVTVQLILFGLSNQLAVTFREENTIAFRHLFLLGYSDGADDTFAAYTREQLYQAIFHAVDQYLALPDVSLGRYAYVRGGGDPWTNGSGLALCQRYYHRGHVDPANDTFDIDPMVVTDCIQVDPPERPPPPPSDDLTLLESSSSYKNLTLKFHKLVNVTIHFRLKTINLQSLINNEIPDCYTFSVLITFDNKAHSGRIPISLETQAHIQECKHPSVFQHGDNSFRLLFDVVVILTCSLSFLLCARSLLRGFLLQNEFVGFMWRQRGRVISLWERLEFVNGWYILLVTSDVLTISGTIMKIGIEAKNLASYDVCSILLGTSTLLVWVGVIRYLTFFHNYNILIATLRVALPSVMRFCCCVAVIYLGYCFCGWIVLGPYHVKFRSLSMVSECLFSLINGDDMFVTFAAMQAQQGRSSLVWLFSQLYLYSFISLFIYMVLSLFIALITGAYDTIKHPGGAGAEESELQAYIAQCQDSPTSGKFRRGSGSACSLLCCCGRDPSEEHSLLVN
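Agonist activity was taken from a 110 s kinetic Ca2+ dye read on the FDSS after pinning compounds onto TRPML1-DL cells. The cells were seeded at 1,500/well with Tet inducer, incubated about 16 h, then dye-loaded at room temperature.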
D2 potentiator = Beta-Arrestin HTS for Positive Allosteric Modulators of the Human D2 Dopamine Receptor: Potentiators. D(2) dopamine receptor (Homo sapiens), P14416. DiscoveRx D2 beta-arrestin cells, luminescence, 90 min; 100% = 57 uM dopamine signal. potentiation, % (concentration not given with the values). hit rate 0.23% among 360,000; active = potentiation of 50% or more; inconclusive = 30% to 50%; inactive = 30% or less;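 note: compound concentration not given in the record; tested on top of an EC20 dose of dopamine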
Target sequence (P14416 whole entry, looked up): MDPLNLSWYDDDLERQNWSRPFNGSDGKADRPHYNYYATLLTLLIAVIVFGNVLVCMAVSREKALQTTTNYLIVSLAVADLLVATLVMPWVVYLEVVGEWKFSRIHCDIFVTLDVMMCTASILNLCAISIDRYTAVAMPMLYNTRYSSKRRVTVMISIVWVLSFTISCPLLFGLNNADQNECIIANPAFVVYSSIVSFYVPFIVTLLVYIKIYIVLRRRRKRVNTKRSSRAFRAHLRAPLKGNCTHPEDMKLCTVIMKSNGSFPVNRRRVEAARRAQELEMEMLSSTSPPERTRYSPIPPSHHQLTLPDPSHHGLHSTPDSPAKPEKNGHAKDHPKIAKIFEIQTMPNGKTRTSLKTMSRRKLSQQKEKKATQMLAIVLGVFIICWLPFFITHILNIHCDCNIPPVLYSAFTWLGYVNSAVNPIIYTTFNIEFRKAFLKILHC
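PathHunter beta-arrestin assay in DiscoveRx D2 cells. Compounds were added with an EC20 of dopamine (50 nM final) for 90 min at 37 deg C. Luminescence was read 1 h after detection reagent, with 57 uM dopamine as the EC100 control.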
TRPML1 blocker = qHTS for Inhibitors of the Human Mucolipin Transient Receptor Potential 1 (TRPML1); TRPML1-inducible cells, Ca2+ dye fluorescence, FDSS; active compounds read low; inhibition of EC80 agonist-evoked calcium signal; hit rate 0.02% among 390,000; activity change, negative = inhibition, % (test concentration not listed); Mucolipin-1 (Homo sapiens), Q9GZU1; in the data active means activity change below about -50%; inconclusive means about -30% to -50%; inactive means above about -30%;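 note: stimulus is agonist 54-4 at its EC80 concentration; % is set by controls: 0 for no effect and ±100 for the full control effect; compound concentration not given in the record; the text of the record puts the active cut at -80%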
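Calcium fluorescence in TRPML1-DL cells induced overnight with Tet: a 110 s read after compound pin addition, then a 110 s antagonist read after challenge with 54-4 at 4 uM final (EC80).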
D2 agonist = Beta-Arrestin HTS for Positive Allosteric Modulators of the Human D2 Dopamine Receptor: Agonists; hit rate 0.084% among 360,000; D(2) dopamine receptor (Homo sapiens), P14416; DiscoveRx PathHunter D2 beta-arrestin, luminescence, 90 min; 100% = 57 uM dopamine signal; AID 624465, 2012; activation, % (test concentration not listed); in the data active = activation above about 40%; inconclusive = about 15% to 40%; inactive = below about 15%; note: compound concentration not given in the record; the text of the record calls up to 30% inactive
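DiscoveRx PathHunter D2 beta-arrestin cells (2,100/well) attached overnight, then compound-stimulated 90 min at 37 C in HBSS/10 mM HEPES/0.1% Tween-20 buffer; beta-galactosidase complementation read by luminescence after 1 h at ambient temperature. Dopamine 57 uM final (EC100) as control.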
Six1-Eya2 inh = qHTS Assay for Inhibitors of the Six1/Eya2 Interaction | Homeobox protein SIX1 (Homo sapiens) + Protein phosphatase EYA2 (Homo sapiens), … | AlphaScreen GST-Six1/His-Eya2 binding, biochemical; active compounds read low; control for the full effect not named in the record | activity change, % (test concentration not listed) | hit rate 0.56% among 360,000 | AID 651725, 2012; in the data active = activity change below about -65%; inconclusive = about -30% to -65%; inactive = above about -30%; note: % is set by controls: 0 for no effect and ±100 for the full control effect
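GST-Six1 + His-Eya2 (5X stock: 250/500 nM); Tris pH 8.0, 300 mM NaCl, 0.05% BSA, 0.02% Tween 20; GSH donor/Ni acceptor beads; 1 h 37 °C dark; AlphaScreen readout.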
PINK1 modulator = A Quantitative High throughput Screen to Identify Chemical Modulators of PINK1 Expression; PINK1 immunofluorescence, high-content cytometry, 24 h; Potency, µM (highest dose often 76.6 µM), for inactives: at the highest dose activation (PINK1 increase), actives largely listed as activators; hit rate 0.2% among 410,000; AID 624263, 2012; active = well fitted activation curve with a large enough effect; inconclusive = small, poorly fitted or top-dose-only effect; inactive = flat fitted curve, though single readings scatter; cell line not stated here;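 note: potency is the fitted concentration of half-maximal effect; % of control where 0% means no effect; nearly all actives have a fitted effect of over 65% in size; a mitochondrial uncoupler was the plate control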
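A stable cell line was treated with compounds at 5 concentrations for 24 hours, with CCCP as control. PINK1 levels and mitochondrial localization were measured by immunofluorescence with mitochondrial, cell and nuclear markers after fixation, read by laser-scanning cytometry.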
Numbers without * were called inactive; u = inconclusive; x = no result given; & = joins results of further samples; [ ] = another dose, or the depositor's remark. Rows were taken by chance; 1% or so of the library scored in one or more.

SMILES,TRPML1 agonist,D2 potentiator,TRPML1 blocker,D2 agonist,Six1-Eya2 inh,PINK1 modulator
COc1cc(C(c2c(C)[nH][nH]c2=O)c2c(C)[nH][nH]c2=O)cc(Cl)c1O,-0.8,-1,4,4.9,-4,0.0%
C[C@H](CO)N1C[C@H](C)[C@@H](CN(C)C(=O)c2ccccn2)Oc2cc(Br)ccc2S1(=O)=O,-0.4,-1,8,-8.8,9,1.3%
CCCC(=O)Nc1ccc2c(c1)nc1n2CCN(CCOC)C1,0.3,-3,-5,-1.5,13,0.7%
CC(C)CN(C(=O)COc1ccc(C(C)(C)C)cc1)C1CCS(=O)(=O)C1 (stereo not given),0.0,-4,-12,-2.5,1,-0.5%
CO/N=C/c1c(-c2ccccc2)nn(C)c1Cl,3.0,-2,6,0.8,u,1.1%
Cc1ccc(NC(=O)CN(C)CC(=O)Nc2ccccc2C#N)cc1,0.5,-3,9,2.2,-1,1.4%
Cc1ccc(-n2nc3c(=O)n(CCCC(=O)NCc4ccccc4Cl)nc(C)c3c2C)cc1,2.8,-5,0,2.7,1,0.5%
CC(CCc1ccc(O)cc1)NCc1ccc(Cl)cc1Cl (stereo not given),1.0,-5,3,14,12,3.5%
COc1ccc(-c2nncnn2)cc1,-0.5,-1,0,4.1,4,-0.8%
COc1cccc(CNC(=O)c2cnc(N3CCCCC3)c3ccccc23)c1,1.3,x,-19,x,x,0.5%
COc1ccccc1Sc1nc(-c2ccccc2)ncc1OC,1.2,-2,0,-0.5,7,1.1%
CC(C)CC(=O)Nc1nnc(S(=O)(=O)N(CC(C)C)c2ccccc2)s1,2.9,x,2,x,x,0.6%

Further compounds:
SMILES,TRPML1 agonist,D2 potentiator,TRPML1 blocker,D2 agonist,Six1-Eya2 inh,PINK1 modulator
C/C(=N\NC(=O)c1nnn(-c2nonc2N)c1CN(C)c1ccccc1)c1cccnc1,-1.0,-7,14,7.0,-19,4.3%
CC(=O)c1c(C)[nH]c(C(=O)OCC(=O)C(C)(C)C)c1C,-0.2,-10,-1,3.2,2,-3.8%[38.3 µM]
CN=C1N(C)C[C@@H]2[C@@H]3C(=O)N(C)C(=O)[C@@H]3[C@](Cc3ccccc3)(C(=O)OC)N12,-0.6,x,-2,1.3,5,0.7%
O=C(O)C(Cc1ccc(O)cc1)N1C(=O)c2c(Cl)c(Cl)c(Cl)c(Cl)c2C1=O (stereo not given),-1.0,-12,39,-3.2,2,-0.6%
COc1ccc(NC(=O)CCCN2C(=O)/C(=C\c3ccco3)SC2=S)cc1,1.2,2,12,3.4,-10,8.3%
O=C(CSc1nnnn1-c1ccccc1)Nc1ncc(Cc2cccc(Cl)c2Cl)s1,-0.3,-10,-2,-2.4,3,5.8%
Cn1c(SCC(=O)NC2CCCCCC2)nnc1-c1cccs1,0.2,0,-8,7.5,5,-0.9%
O=C1N/C(=C/c2cccn2-c2ccccc2)C(=O)N1Cc1ccc(F)cc1,-1.6,-8,3,-1.8,0,u
Cc1cc(C)cc(C(=O)OCC(=O)N2CCCCCC2)c1,3.2,-1,11,1.3,0,0.3%
O=C(NCCc1ccccc1)c1n[nH]c(=O)c2ccccc12,0.1,-6,1,-4.5,4,5.0%
COc1ccc(-c2nc(NC(=O)c3cc(C(C)(C)C)nn3C)sc2C)cc1,1.3,9,-3,3.9,-2,15%[38.3 µM]
COc1ccc(/C=N/NC(=O)c2ccncc2)cc1CN1CCOCC1,-0.1,-1,7,-1.2,6,-0.4%

Other entries follow:
SMILES,TRPML1 agonist,D2 potentiator,TRPML1 blocker,D2 agonist,Six1-Eya2 inh,PINK1 modulator
COc1ccc(OC)c(NC(=O)CSc2nnnn2C2CCCC2)c1,-1.5,-11,-5,-6.3,-2,0.6%
COc1cc(C(=O)O)cc(OC)c1OCc1cc(C(=O)O)oc1C,-0.5,2,-11,-1.4,-3,0.9%
COC(=O)CCCCCN1C(=O)NC(C2CC2)C(C(=O)OCc2ccccc2)=C1C (stereo not given),1.9,-7,31,0.9,-6,2.2%
O=C(COc1cccc(Cl)c1)N1CCC(c2nc3ccccc3o2)CC1,1.7,x,-20,x,x,-0.3%
Cc1nc([N+](=O)[O-])cn1CC(=O)c1ccc(Br)cc1,-0.1,-2,32,-0.5,3,2.8%
COc1ccc(CN(Cc2ccc(C(=O)O)cc2)C(=S)Nc2ccccc2C)cc1OC,0.8,-7,-8,-1.5,2,-0.9%
CC(C)(C)CC(C)(C)n1nnnc1N,0.7,4,0,1.6,-3,3.0%
CC(=O)c1c(C)[nH]c(C)c1C(C)=O,0.0,-4,-20,0.5,0,1.5%[38.3 µM]
COc1cccc(NC(=O)CN(C)C(=O)c2ccccc2CCc2ccccc2)c1,1.1,-24,-21,-3.9,0,u
O=[N+]([O-])c1cccc(NC(=S)N2CCOCC2)c1,0.1,-5,8,-4.5,3,1.7%
Cc1ccc(-c2nc3sc(CCNC(=O)c4ccc(F)c(F)c4)c(C)n3n2)cc1,2.9,x,-9,x,x,5.2%
CC(C)N(Cc1ccccc1)C(=O)c1cccs1,3.8,-8,2,-1.4,2,1.4%

The list goes on.
SMILES,TRPML1 agonist,D2 potentiator,TRPML1 blocker,D2 agonist,Six1-Eya2 inh,PINK1 modulator
O=C(CNc1cccc(C(F)(F)F)c1)N/N=C/c1cn(-c2ccccc2)nc1-c1ccccc1,0.2,2,6,2.1,3,9.2%
CN(Cc1c(C(=O)N/N=C/c2cccc(F)c2)nnn1-c1nonc1N)c1ccccc1,0.9,-4,-8,-3.0,-4,1.4%
CCCCN(C(=O)C1CCC1)c1c(N)n(Cc2ccccc2)c(=O)[nH]c1=O,0.4,-1,-2,-1.3,2,2.0%
COc1ccc(CNC(=O)CCc2c[nH]c3ccccc23)cc1,1.5,-7,10,-5.6,10,-2.9%
Cc1ccc(C=C(C#N)C(=O)c2ccccc2)cc1,0.2,-7,x,-4.9,2,1.8%
Cc1nc2nc(C)c(NS(=O)(=O)c3ccc(CC(C)C)cc3)c(=O)n2[nH]1,1.0&0.0,-2,0&-5,4.0,4,3.4%&-1.5%
CCOC(=O)CNc1ncc([N+](=O)[O-])cc1C#N,-0.3,6,-4,3.6,3,3.3%
O=C(NCc1ccco1)C(c1cccs1)N(Cc1ccccc1)C(=O)Cn1nnc2ccccc21 (stereo not given),3.1,-18,-3,-6.5,-8,0.9%
CCOc1cc(C=O)ccc1OCCSc1ccc(C)cc1,2.3,2,19,-3.5,15,9.3%[38.3 µM]
COc1ccccc1C1C=C(c2ccccc2)Nc2nnnn21 (stereo not given),-0.6,2,-15,-0.6,-1,17%[38.3 µM]
O=C(Nc1ccc2c(c1)OCO2)c1cc(Cl)ccn1,0.1,-19,30,-2.7,-9,0.5%
Cc1ccc(S(=O)(=O)CC(=O)c2ccc3c(c2)OCCO3)cc1,0.0,-6,-14,-3.9,-3,2.1%

The list continues.
SMILES,TRPML1 agonist,D2 potentiator,TRPML1 blocker,D2 agonist,Six1-Eya2 inh,PINK1 modulator
Cc1cc2cc3c(cc2nc1SCC(=O)OC(C)C)OCCO3,0.5,-24,45,-8.5,5,4.3%
NS(=O)(=O)c1ccc(NC2=CC(=O)C(=O)c3ccccc32)cc1,1.0,25,-5,u,-4,1.0%
COc1cc(NC(=O)c2ccco2)ccc1NC(=O)c1ccccc1Cl,-0.5,0,13,-2.4,0,-0.2%
O=C(Nn1cnnc1)c1ccc(Cl)c(Cl)c1,x,6,x,1.5,-3,1.1%
Cc1cc(N2CCOCC2)c2c(N)cc(C)c(C)c2n1,-0.9,-8,14,0.0,-9,1.6%
COc1ccc([C@H]2C[C@H](O)[C@@H](n3cc(C4CC4)nn3)CN2Cc2cccs2)cc1,0.0,-1,-11,-8.6,-6,0.9%
CCS(=O)(=O)n1nc(-c2ccccc2)nc1SCc1ccccc1,0.9,-9,3,0.4,2,2.3%
CC(C)OC(=O)/C(=C/c1cccnc1)NC(=O)c1ccccc1,0.8,-3,0,-5.3,3,-2.3%
O=C(NCc1ccco1)c1cc(-c2ccc(F)cc2)on1,0.9,-6,4,-1.4,-1,-4.3%[38.3 µM]
COc1ccccc1C(O)P(=O)(OC1CCCCC1)OC1CCCCC1 (stereo not given),0.9,-38,5,-0.3,-4,1.2%
COC(=O)c1c(NC(=O)C2CC2)sc(C(=O)Nc2ccccc2)c1C,1.1,-8,-6,-0.5,-7,-1.9%
CCOc1ccc(S(=O)(=O)c2c(C(=O)c3ccc(C)c(C)c3)cnc3ccccc23)cc1,2.6,x,-13,x,x,6.8%

(cont.)
SMILES,TRPML1 agonist,D2 potentiator,TRPML1 blocker,D2 agonist,Six1-Eya2 inh,PINK1 modulator
Cc1ccc(-c2nc3ncccc3o2)cc1NC(=O)C(C)(C)C,x,3,x,-1.2,2,1.3%
C[C@H](CO)N1C[C@H](C)[C@@H](CN(C)S(=O)(=O)c2ccc(F)cc2)Oc2ccc(NC(=O)CCC(F)(F)F)cc2C1=O,0.0,-11,19,-2.0,-3,0.4%
COc1ccc(C(=O)Cn2nc(CNc3ccc(Br)cc3)[n+]3c2CCCCC3)cc1,0.0,-15,-3,-4.9,-17,20%
O=C(NCc1ccco1)C1CCC(N2C(=O)C3C4CCC(C4)C3C2=O)CC1 (stereo not given),-0.3,-2,-6,-1.7,-24,-0.8%
C=CCNc1oc(/C=C/c2ccccc2)nc1C#N,2.9,-5,10,2.1,14,-3.7%[38.3 µM]

A few values from the entries so far:
D2 potentiator with Cc1ccc(-c2nc3ncccc3o2)cc1NC(=O)C(C)(C)C reads 3
D2 agonist with O=C(NCc1ccco1)C1CCC(N2C(=O)C3C4CCC(C4)C3C2=O)CC1 (stereo not given) reads -1.7
